# miR-21 FLuc: qHTS Assay for Modulators of miRNAs and/orActivators of miR-21. AID 2288, 2010. Potency, µM (top dose mostly 38.3 µM), for the others: at the top dose reporter change, positive = more light. HeLa miR-21 FLuc reporter, luciferase, 48 h. 340,000 tested, under 10 active; active = well fitted rising curve with a large enough effect; inconclusive = small, poorly fitted or top-dose-only effect; inactive = no such curve, though single readings can be large or run the other way;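 further: % of control where 0% means no effect; miR-21 action dims this reporter so a rising signal means less miR-21 action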
#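 HeLa miR-21-FLuc reporter line, endogenous miR-21; 2000 cells/well in DMEM/10% FBS; compound titration up to ~40uM final, 48 h, 37 degree Celsius; luciferase detection reagent, 15 min lysis, CCD luminescence.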
# Rango complex inh: qHTS Assay for Inhibitors of Rango (Ran-regulated importin-beta cargo) - Importin beta complex formation; Rango CFP/YFP FRET sensor + importin beta, 45 min; 0.031% of 340,000 active; Potency, µM (highest dose often 92.2 µM), for the others: top-dose inhibition of complex formation; Importin subunit beta-1 (Homo sapiens), Q14974; active = rising FRET ratio curve, often small or poorly fitted; inconclusive = mostly compound fluorescence or quenching in the first reads; inactive = flat curves in all reads;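 further: potency means the concentration at half of the fitted maximal effect; 0% = DMSO wells and 100% = buffer wells lacking importin beta; nearly all actives have a fitted effect of over 15% in size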
#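 FRET biosensor Rango (snurportin 1 IBB between N-terminal EYFP and C-terminal Cerulean), 50 nM in PBS/1 mM DTT/0.02% Tween-20/0.1% BSA, preincubated 5 min RT with compound; 0.125 microM importin beta added, 45 min RT, CFP/YFP FRET ratio read.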
# GLA inh pH 4.5: qHTS Assay for Inhibitors of Human alpha-Galactosidase at pH 4.5; purified enzyme, 4-MU-alpha-Gal fluorescence, pH 4.5; activity change, negative = inhibition, % at 105 µM; 230,000 tested, under 10 active; AID 1467, 2008; inconclusive = small, poorly fitted or top-dose-only inhibition, or a rising curve; inactive = flat fitted curve, though single readings scatter; no compound was filed as active;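 further: 0% = full activity with enzyme and -100% = basal without enzyme; dose as in the result columns while the protocol names 77 µM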
# Target sequence (P06280 whole entry, looked up): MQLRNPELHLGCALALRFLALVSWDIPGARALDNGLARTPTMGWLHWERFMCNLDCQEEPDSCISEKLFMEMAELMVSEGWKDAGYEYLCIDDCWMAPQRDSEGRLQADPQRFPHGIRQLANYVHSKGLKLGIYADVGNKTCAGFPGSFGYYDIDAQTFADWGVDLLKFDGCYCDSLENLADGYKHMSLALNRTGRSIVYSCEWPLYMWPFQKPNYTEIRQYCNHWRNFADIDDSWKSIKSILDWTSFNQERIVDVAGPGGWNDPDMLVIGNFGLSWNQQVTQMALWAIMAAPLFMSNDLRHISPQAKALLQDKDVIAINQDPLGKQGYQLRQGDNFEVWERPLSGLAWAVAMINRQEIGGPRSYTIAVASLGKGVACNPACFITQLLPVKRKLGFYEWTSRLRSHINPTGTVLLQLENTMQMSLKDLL
# Rango release inh: qHTS Assay for Inhibitors of RanGTP induced Rango (Ran-regulated importin-beta cargo) - Importin beta complex dissociation; Snurportin-1 (Homo sapiens) + GTP-binding nuclear protein Ran (Homo sapiens) + Importin …; Biochemical FRET Rango-importin beta, RanGTP-induced dissociation; Potency, µM (doses to about 46.1 µM), for the others: at the highest dose activity change, negative = inhibition; 0.071% of 340,000 active; active means falling FRET ratio curve, often poorly fitted, with flat reads before Ran was added; inconclusive means other falling curves, or compound fluorescence or quenching; inactive means flat or rising ratio curve;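 further: potency means the concentration at half of the fitted maximal effect; % of control where 0% means no effect; nearly all actives have a fitted effect of over 45% in size; -100% = wells without RanGTP and RCC1; the record marks most hits as doubtful in a second field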
#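 Quantitative HTS using a FRET biosensor: 0.1 uM Rango, 0.25 uM importin beta, 0.6 uM Ran, 2 mM GTP, 0.2 uM RCC1 final, PBS with DTT, Tween-20 and BSA. Post-read taken 45 min after Ran addition.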
# Numbers without * were called inactive; ? = inconclusive; · = no result given; & = joins results of further samples.
miR-21 FLuc,Molecule,Rango complex inh,GLA inh pH 4.5,Rango release inh
0.9%,CCOC(=O)N1CCC(c2cc(=O)n3[nH]ccc3n2)CC1,3.1%,1.8,-4.6%
13.7%,COc1ccc(N2CCN(c3nc(NCCc4ccc(OC)c(OC)c4)nc(OC)n3)CC2)cc1,-4.8%,6.3,21.7%
-1.6%,O=C(NCCCC(=O)N1CCOCC1)c1cccnc1,-0.9%,-4.3,0.5%
1.6%,O=C(Nc1ccccc1)C(Cc1cccs1)c1nn[nH]n1 (configuration not stated),-0.6%,0.2,18.2%
0.9%,CC(C)CCN1CCC(n2nccc2NC(=O)C2CCOC2)CC1 (configuration not stated),-2.8%,·,-6.0%
-7.8%,O=C1CC(C(=O)Nc2ccc(C(=O)O)cc2)C(c2ccccc2)O1 (configuration not stated),?,5.4,2.8%
-4.3%,Cn1ccnc1SCc1ccc([N+](=O)[O-])cc1,4.2%,3.0,-6.4%
-8.5%,O=C(CN1C(=O)C2C3CCC(C3)C2C1=O)OCC(=O)c1cccc([N+](=O)[O-])c1 (configuration not stated),3.1%,2.9,-6.7%
-5.7%,CCOC(=O)C1CCN(C(=O)c2cnn3c(C)cc(C)nc23)CC1,0.6%,1.6,-0.9%
-7.6%,CCNc1nc2nonc2nc1NCC,0.4%,-0.6,8.6%
-5.2%,C=CCn1c(SCc2ccccc2C#N)nnc1-c1ccccc1O,-1.6%,9.0,-20.9%
-3.7%,O=C(CSc1nc2ccccc2n1CC(=O)N1CCCC1)Nc1nccs1,-6.4%,-7.4,12.6%
0.9%,COc1ccc(S(=O)(=O)NCCC(=O)NCc2cccs2)cc1,-5.5%,1.7,-8.3%
-1.8%,O=C(NCc1ccccc1OC(F)(F)F)C1CCC(=O)N(Cc2ccccn2)C1 (configuration not stated),0.7%,·,-5.6%
9.4%,COc1ccc2c(c1OC)C(C1c3c(cc4c(c3OC)OCO4)CCN1C)OC2=O (configuration not stated),-0.8%,·,-10.2%
-8.1%,COc1ccccc1-c1c(C(F)(F)F)oc2cc(OC(=O)c3cccc([N+](=O)[O-])c3C)ccc2c1=O,-4.9%,-28.9,39.3%
-31.4%,Cc1c(NC(=O)c2cc3ccccc3oc2=O)c(=O)n(-c2ccccc2)n1C,1.6%,-0.3,0.0%
5.9%,CCOC(=O)C1(CC2CC2)CCN(Cc2cnc(N(C)C)s2)CC1,-2.2%,0.1,1.0%
-50.8%,CC(=O)c1ccc(NCC2COc3ccccc3O2)c([N+](=O)[O-])c1 (configuration not stated),-3.7%,-4.5,-3.1%
-7.0%,O=C(Nc1cccnc1N1CCOCC1)c1cccs1,-0.1%,4.5,-7.0%
-2.0%,CCOc1ccc(-c2[nH]ncc2Oc2ccccc2OCC)c(O)c1,5.0%,1.5,11.4%
0.1%,Cc1cccc(-n2c(CNC(=O)Cc3ccccc3)n[nH]c2=S)c1,-3.8%,8.5,13.1%
19.4%,COc1cccc(OC)c1C(=O)NC(=S)N1CCN(c2ccc(C(F)(F)F)cc2[N+](=O)[O-])CC1,-2.9%,-1.0,10.5%
-3.7%,Cn1nc(C(F)(F)F)c2cc(C(=O)Nc3ccc(C(F)(F)F)cc3)sc21,2.4%,-4.7,3.2%
1.6%,CCOC(=O)c1cc(C#N)c(N2CCN(C(=O)c3ccccc3)CC2)nc1C(F)(F)F,-1.3%,-3.4,0.5%
0.0%,COCCCNC(=O)C(=O)NCC(c1ccco1)N1CCN(c2ccc(OC)cc2)CC1 (configuration not stated),-0.4%,·,0.8%
5.3%,CCOC(=O)/C(C#N)=N/Nc1c(C)n(C)n(-c2ccccc2)c1=O,-2.7%,-9.9,0.9%
9.0%,Cc1ccccc1Cn1nc(C)c(NC(=O)c2cc(-c3cccs3)on2)c1C,0.4%,2.0,-3.4%
·,COc1cccc2sc(N3CCN(C(=O)c4ccco4)CC3)nc12,-0.3%,·,0.6%
-12.5%,CCNc1nc(NCC)nc(SCCOC(=O)c2ccccc2)n1,1.0%,2.3,26.4%
1.1%,CNC(=S)N/N=C/c1cc(C)ccc1C,2.4%,-2.0,-0.2%
-2.7%,CCOc1ccc(C2C(C(=O)Nc3ccccc3)=C(C)N=c3s/c(=C/c4cccc(OCC(=O)O)c4)c(=O)n32)cc1 (configuration not stated),?,-0.3,-13.0%
-5.4%,Nc1cc(N)nc(SCc2cccnc2)n1,-1.2%,6.9,-3.8%
2.7%,O=C(c1ccc(COc2ccc(Cl)cc2)o1)N1N=C(C(F)F)CC1(O)C(F)F (configuration not stated),-0.2%,-7.5,-4.6%
-9.7%,COc1ccccc1N1CCN(C(=O)c2cc(-c3ccccc3)on2)CC1,0.1%,·,-4.1%
-9.3%,COc1ccc(-c2c(C)oc3c(CN4CCCCC4C)c(O)ccc3c2=O)cc1 (configuration not stated),-0.9%,·,-11.7%
-13.8%,CC(=O)Nc1ccc(S(=O)(=O)N(C)S(=O)(=O)c2ccc(F)cc2)cc1,0.5%,-4.2,4.9%
-4.3%,COc1cc(C(=O)Nc2cc(C(F)(F)F)ccc2Cl)cc(OC)c1OC,7.9%,0.5,2.3%
28.8%,CC(=O)c1c(C)[nH]c(C(=O)Nc2nc(C)cs2)c1C,-6.2%,-23.2,-4.0%
-34.7%,N/C(=N\OC(=O)c1ccncc1)c1cccc([N+](=O)[O-])c1,5.2%,·,-6.3%
-1.5%,COc1ccc(Cl)cc1NC(=O)CSc1ncnc2c1oc1ccccc12,2.3%,3.4,2.7%
15.6%,O=C(O)Cc1sc(N/N=C\c2ccncc2)nc1-c1ccccc1,?,-11.5,?
-5.6%,NCCCC[C@H]1CNC(=S)N1CCc1cc(C(F)(F)F)cc(C(F)(F)F)c1,3.4%,-5.2,17.7%
17.8%,CCc1ccccc1Nc1nn2c(=O)c3ccc(C(=O)NCc4ccccn4)cc3nc2s1,-4.3%,·,20.2%
1.4%,CN(C)CCNC(=O)Cc1ccc([N+](=O)[O-])cc1,-1.2%,4.3,-3.9%
-3.4%,CC(=O)c1cnc2nc(C)nn2c1C,-0.2%,13.0,10.0%
-1.8%,CCOc1ccc(S(=O)(=O)NCCCN2CCOCC2)c2ccccc12,1.1%,-13.4,20.0%
-17.5%,CCOc1ccccc1Nc1nnc(SCC(=O)Nc2cc(C)on2)s1,-0.9%,-2.5,-11.1%
-0.4%,O=C(COC(=O)c1ccccc1C(=O)c1ccc(Cl)cc1)NC(c1ccccc1)c1ccccc1,0.5%,0.8,-5.6%
27.1%,N=c1c2c(n(Cc3ccc([N+](=O)[O-])cc3)c3c1CCC3)CCCC2,3.2%,?,-1.9%
-0.4%,O=C(c1cc([N+](=O)[O-])ccc1Cl)N1CCN(c2ccc([N+](=O)[O-])cc2)CC1,-0.6%,-5.2,31.0%
-2.7%,COc1ccc(C(=O)N/N=C/c2ccc3cccc(OCc4ccccc4)c3n2)cc1,-1.8%,10.4,-24.2%
-2.1%,CCCCn1c(=O)c2ccccc2n2c(=S)[nH]nc12,-0.8%,·,-5.2%
-5.6%,CC(=O)c1ccc([C@H]2C[C@@]34CN(C(=O)OC(C)(C)C)S(=O)(=O)[C@H]3C[C@H]2O4)cc1,-4.2%,-22.8,6.7%
·,CN1CCN(S(=O)(=O)c2ccc(Oc3ccc(Br)cc3F)nc2)CC1,-0.1%,·,-10.8%
·,CCNC(=O)N1CCN(CCCC(c2ccc(F)cc2)c2ccc(F)cc2)CC1,2.4%,-14.7,-7.6%
-0.1%,CNc1ccc(C(O)(C(F)(F)F)C(F)(F)F)cc1C(O)(C(F)(F)F)C(F)(F)F,-4.2%,-23.5,-9.7%
0.1%&-0.5%,CN(Cc1ccc(F)cc1)S(=O)(=O)c1nnc(NC(=O)c2ccccc2Br)s1,0.5%,·,2.2%
-1.1%,O=C(O)CN1C(=O)C(=O)N(Cc2ccccc2F)C1=O,-0.8%,·,-0.1%
-8.2%,C#CCOCCOCCOCCNc1nc(N2CCN(C(=O)[C@H](CCCCN)n3cc(CCCC)nn3)CC2)nc(N2CCN(C(=O)[C@H](CCCCN)n3cc(CCCC)nn3)CC2)n1,?,-4.4,-2.2%

# Another view of 3 compounds above:
miR-21 FLuc | Rango complex inh | GLA inh pH 4.5 | Rango release inh | compound
-0.1% | -4.2% | -23.5 | -9.7% | CNc1ccc(C(O)(C(F)(F)F)C(F)(F)F)cc1C(O)(C(F)(F)F)C(F)(F)F
-34.7% | 5.2% | · | -6.3% | N/C(=N\OC(=O)c1ccncc1)c1cccc([N+](=O)[O-])c1
· | 2.4% | -14.7 | -7.6% | CCNC(=O)N1CCN(CCCC(c2ccc(F)cc2)c2ccc(F)cc2)CC1

# Continued.
miR-21 FLuc,Molecule,Rango complex inh,GLA inh pH 4.5,Rango release inh
-2.8%,NC(=O)CSc1nnc(-c2cc3ccccc3o2)n1Cc1ccccc1,-1.5%,-1.4,12.2%
-5.3%,Cc1cc(C)nc(N2CCCC(C(=O)NCCc3ccc(F)cc3)C2)n1 (configuration not stated),0.7%,4.7,4.1%
-8.6%,Cc1ccc2c(C)c(C(=O)NCc3ccc(S(N)(=O)=O)cc3)oc2c1,-4.5%,5.2,6.3%
-3.8%,CCOC(=O)C(C)Sc1nnc(Cc2cc(=O)[nH]c(=O)[nH]2)n1-c1cccc(OC)c1 (configuration not stated),7.4%,-4.9,36.4%
-5.1%,Cc1cccc(NCC(=O)N/N=C\c2cccn2C)c1,2.8%,-1.9,17.5%
-7.0%,Cn1ncc2c(=O)n(CC(=O)NC34CC5CC(CC(C5)C3)C4)cnc21,-2.0%,4.8,-5.0%
-6.9%,Cc1ccc(OCc2nnc(NC(=O)c3ccco3)s2)c(C)c1,-4.4%,-3.0,-8.1%
-4.2%,O=C1CC[C@@H](O)CCN1CC[C@H](Sc1ccccc1)c1ccccc1,1.0%,·,20.6%
-6.7%,Oc1ccc(C(=S)N2CCCCC2)cc1,0.4%,-3.6,27.3%
2.4%,O=C(NCCNC(=O)c1ccccc1Cl)c1ccco1,-4.8%,·,3.9%
-2.4%,COc1ccc(NC(=O)CCNC(=O)Cn2cnc3ccccc3c2=O)c(OC)c1,1.8%,6.0,-0.9%
-1.6%,CCCCN(Cc1ccccc1)S(=O)(=O)c1c(N)n(C)c(=O)n(C)c1=O,-0.3%,·,-13.9%
-5.4%,Nc1ccc(NC(=O)CCN2CCOCC2)cc1,-1.5%,·,41.4%
·,COc1ccc(S(=O)(=O)N2CCCCC2)cc1NC(=O)c1cncc(Br)c1,-3.0%,·,6.0%
-8.8%,CNC(=S)N1N=C(c2ccc(Br)cc2)CC1c1ccc(OC)cc1 (configuration not stated),-0.3%,-11.2,-12.1%
-53.1%,N#C/C(=C\c1cc(Cl)c(OCc2ccc(Cl)cc2)c(Cl)c1)C(N)=O,·,-9.3,·
-6.9%,COc1ccc(CCNC(=O)CSc2n[nH]c(N)n2)cc1OC,2.0%,·,7.9%
-0.4%,O=C(CSc1ccc2nnc(-c3ccccn3)n2n1)NCC1CCCO1 (configuration not stated),-1.2%,-1.5,9.5%
-1.5%,COC(=O)C1=C(C)N(CCCC(=O)O)C(=O)NC1c1cccs1 (configuration not stated),?,1.4,19.4%
-11.1%,Cc1ccc(/C=C/C(=O)Nc2ccccc2C(N)=O)cc1,-2.9%,9.9,0.3%
6.3%,NC(=O)C(c1ccc(Cl)cc1Cl)c1ncc(C(F)(F)F)cc1Cl (configuration not stated),-1.2%,2.3,-9.7%
-1.7%,O=C(O)c1ccc(CSc2nnc(-c3ccccc3)n2-c2ccccc2)cc1,3.8%,-9.3,0.0%
·,Cc1nn(-c2ccc(F)cc2)c(Cl)c1C(=O)N(C)CC(=O)Nc1cccc(F)c1,0.7%,·,-2.3%
-5.4%,O=C(COc1ccccc1Cl)NCCNC(=O)c1ccccn1,1.9%,·,8.2%
-3.5%,Cc1ccc(C(=O)c2c[nH]c(C(=O)NCCCN3CCOCC3)c2)cc1,-0.1%,-0.2,17.3%
-5.3%,CCC(CC)NC(=O)C1CC(=O)N(CCc2ccc(F)cc2)C1 (configuration not stated),-0.1%,·,19.7%

# Screening data from PubChem BioAssay.

# Only part of the results is shown; the hit share may differ from the screen's.
